Screening results deposited in PubChem by National Center for Advancing Translational Sciences (NCATS).
ClpP mod: qHTS Assay for Activators of ClpP | ATP-dependent Clp protease proteolytic subunit (Bacillus subtilis (strain 168)), P80244 | purified B. subtilis ClpP, FRET peptide cleavage, 20 min | Potency, µM (series often up to 57.5 µM), for the others: top-dose activity change, negative = active | 340,000 tested, 1.9% active | AID 651965, 2013; active = well fitted falling curve with a large enough effect; inconclusive = small, poorly fitted or top-dose-only effect; inactive = no such curve, though single readings can be large or run the other way; note: potency is the fitted concentration of half-maximal effect; the source files actives as falling curves though it sought activators and does not explain the sign; nearly all actives have a fitted effect of over 65% in size; many hits overshoot -100%
Target sequence (P80244 whole entry, looked up): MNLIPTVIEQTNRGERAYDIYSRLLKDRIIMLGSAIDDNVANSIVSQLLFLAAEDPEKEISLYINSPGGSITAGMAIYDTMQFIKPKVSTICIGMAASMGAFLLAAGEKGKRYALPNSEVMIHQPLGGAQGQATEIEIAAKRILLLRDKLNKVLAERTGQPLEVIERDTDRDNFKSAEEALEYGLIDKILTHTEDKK
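FRET quenching reversal measured ClpP activation: 10 microg/mL B. subtilis ClpP at pH 8 with the FRET-FV decapeptide, read at 430 nm after 320 nm excitation. The 20-min minus 0-min signal was scaled between DMSO/no-enzyme wells and ADEP (5.8 microM final).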
Menin MLL FP FL: menin-MLL binding inhibition, fluorescein peptide; Fluorescence polarization, fluorescein-MLL peptide displacement from menin; FP activity change, % at 61.4 µM; 290,000 tested, under 10 active; inconclusive = falling polarisation curve, or a change in total fluorescence; inactive = total fluorescence flat and polarisation flat or rising; no compound was filed as active; the % refers to the polarisation; negative = inhibition;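 note: % of control where 0% means no effect; inhibitors lower the polarisation; unlabelled MLL peptide was the positive control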
gsp antag: antagonists of gsp mutant (McCune-Albright syndrome). Potency, µM (titrated, usually from 76.9 µM), without a hit: top-dose activity change, negative = inhibition, most hits filed as inhibitors. 340,000 tested, 0.4% active. AID 624288. gsp-mutant cells, cAMP HTRF, 30 min; control for the full effect not named in the record; active = falling curve of any shape with a large fitted effect; inconclusive = falling curve, mostly with a smaller effect; inactive = flat or rising curve; cell line not stated here;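 note: intracellular cAMP measured with PDE inhibitor Ro 20-1724 present during compound exposure; potency is the fitted concentration of half-maximal effect; % is set by controls: 0 for no effect and ±100 for the full control effect; nearly all actives have a fitted effect of over 65% in size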
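Measurement of cellular cAMP by homogeneous time-resolved fluorescence following a 30 min compound exposure at 37C. The PDE inhibitor […] was present throughout; the assay buffer was DPBS with 0.05% BSA and 0.005% Tween 20.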
TRPML1 ag: agonists of human TRPML1 channel; 410,000 tested, 0.12% active; activation, % (no concentration beside the values); TRPML1-expressing cells, Ca2+ dye fluorescence, FDSS; host cell line not named in the record; reference of the full effect not given here; in the data active = activation above about 50%; inconclusive = about 30% to 50%; inactive = below about 30%; note: 0% is about no effect; the text of the record puts the active cut at 80%
Target sequence (Q9GZU1 whole entry, looked up): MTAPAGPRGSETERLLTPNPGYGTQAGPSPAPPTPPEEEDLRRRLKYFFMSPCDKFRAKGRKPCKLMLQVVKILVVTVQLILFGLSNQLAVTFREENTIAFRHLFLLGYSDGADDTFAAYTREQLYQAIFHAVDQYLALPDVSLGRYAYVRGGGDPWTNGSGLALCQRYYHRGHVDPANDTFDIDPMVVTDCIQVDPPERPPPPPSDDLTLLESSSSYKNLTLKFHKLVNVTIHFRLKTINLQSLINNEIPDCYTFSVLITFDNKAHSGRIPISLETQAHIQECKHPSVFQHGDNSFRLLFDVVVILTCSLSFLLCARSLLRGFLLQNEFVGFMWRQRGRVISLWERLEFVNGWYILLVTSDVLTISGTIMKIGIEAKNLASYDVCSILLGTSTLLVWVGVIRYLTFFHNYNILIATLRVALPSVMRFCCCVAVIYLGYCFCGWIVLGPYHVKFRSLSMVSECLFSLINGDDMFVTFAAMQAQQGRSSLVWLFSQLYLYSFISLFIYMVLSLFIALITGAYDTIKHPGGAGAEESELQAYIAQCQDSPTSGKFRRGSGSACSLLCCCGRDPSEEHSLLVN
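Tet-induced TRPML1-DL cells, 1,500 per well, cultured overnight, were loaded with a no-wash Ca2+ dye for 45–90 min. Calcium fluorescence was recorded on the FDSS for 110 s after compound addition, before the EC80 agonist (4 uM 54-4) was added.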
TRPML1 inh: blocks the human TRPML1 channel; AID 624415; 390,000 tested, 0.02% active; activity change, negative = inhibition, % (no concentration beside the values); TRPML1-inducible cells, Ca2+ dye fluorescence, FDSS; active compounds read low; inhibition of EC80 agonist-evoked calcium signal; Q9GZU1; in the data active means activity change below about -50%; inconclusive means about -30% to -50%; inactive means above about -30%;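 note: stimulus is agonist 54-4 at its EC80 concentration; % is set by controls: 0 for no effect and ±100 for the full control effect; compound concentration not given in the record; the text of the record puts the active cut at -80%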
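Tet-induced TRPML1-DL cells loaded with Ca8 no-wash calcium dye were read kinetically on FDSS. Compound addition was followed by EC80 agonist 54-4 (4 uM final); inhibition was read over 110 s.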
gsp ag: agonists of gsp mutant (McCune-Albright syndrome). gsp mutant cells, cAMP HTRF, 30 min; control for the full effect not named in the record. Potency, µM (highest dose often 76.9 µM), without a hit: top-dose activation (cAMP increase), hits mostly activators. 340,000 tested, 0.13% active. AID 624287; active = well fitted activation curve with a large enough effect; inconclusive = small, poorly fitted or top-dose-only effect, or another doubt; inactive = no such curve, though single readings can be large or run the other way; cell line not stated here;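 note: phosphodiesterase inhibitor Ro 20-1724 added with compounds to block cAMP breakdown; potency is the fitted concentration of half-maximal effect; nearly all actives have a fitted effect of over 60% in size; about a fifth of the inactives were tested at one dose only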
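Cells in DMEM/10% FBS with G418 were pretreated with compounds in DMSO plus […] (300 uM stock) for 30 min at 37C. cAMP was measured by HTRF (cAMP-d2 plus anti-cAMP antibody-K) after 30 min at room temperature.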
Active calls of the source: *; u = inconclusive; x = no result given; [ ] = remark or other dose.

SMILES	ClpP mod	Menin MLL FP FL	gsp antag	TRPML1 ag	TRPML1 inh	gsp ag
Fc1ccc(NC(=S)N2CCOCC2)cc1Cl	0.6%	3.8	12%	0.3	6	-91%[inhibitor]
COc1ccc(Cn2nnnc2C(c2cc3ccc(OC)cc3[nH]c2=O)N2CCC(C)CC2)cc1 (configuration not stated)	-19%	3.4	-10%	0.1	-5	3%
Cc1cccc(CCN2C(Nc3ccccc3)=NC[C@@H]2CC(C)C)c1	-0.3%	x	2%	26	-2	x
CCN(c1ncnc2c1cnn2-c1cc(Cl)ccc1C)C1CCCCC1	-1.2%	x	x	0.0	65	x
CCCOc1ccc(N2CC(C(=O)Nc3ncccc3C)CC2=O)cc1 (configuration not stated)	0.4%	2.3	8%	1.8	-7	0%
Cn1c(=O)c2c(nc(Sc3ccccc3N)n2C)n(C)c1=O	-0.2%	2.6	7%	0.0	15	19%
COc1ccc(N2CCN(C(=O)Cn3cnc4sc(C)c(S(=O)(=O)N5CCC(C)CC5)c4c3=O)CC2)cc1	1.1%	x	x	0.5	7	x
Cc1cccc(CCNC(=O)C2CCCN(S(=O)(=O)c3cnc[nH]3)C2)c1 (configuration not stated)	0.6%	2.2	5%	-0.2	-24	0%
CCn1cc(C(=O)N2CCN(c3ccccn3)CC2)c2cc(OC)c(OC)cc2c1=O	-14%	1.3	22%	-1.0	-7	-5%
Cc1ccc(Cl)cc1N(CC(=O)NC(C)c1ccccc1)S(C)(=O)=O (configuration not stated)	x	-2.3	-4%	1.4	3	17%
Cc1ccc(OCCOc2ccc(Cl)cc2Cl)c([N+](=O)[O-])n1	1.2%	-0.8	u	2.9	6	-14%
COc1cccc(NC(=O)c2nnn(CCc3ccccc3)c2N)c1	-2.5%	0.7	-13%	0.6	-6	-38%[inhibitor]
Cc1cc(C)nc(Sc2c(C)nn(-c3ccccc3)c2C)n1	-1.6%	2.4	7%[15.4 µM]	4.8	16	13%
COC(=O)c1c(C)oc2c1cc(NS(=O)(=O)c1c(C)cc(C)cc1C)c1ccccc12	-8.0%	x	x	2.7	62	x
Cn1nc(C(F)(F)F)c(C#N)c1N1CCN(c2ccccc2)CC1	-5.5%	5.6	-3%	-1.1	-1	2%

Random excerpt: six records from the list.
SMILES	ClpP mod	Menin MLL FP FL	gsp antag	TRPML1 ag	TRPML1 inh	gsp ag
COC(=O)c1c(C)oc2c1cc(NS(=O)(=O)c1c(C)cc(C)cc1C)c1ccccc12	-8.0%	x	x	2.7	62	x
Cc1cc(C)nc(Sc2c(C)nn(-c3ccccc3)c2C)n1	-1.6%	2.4	7%[15.4 µM]	4.8	16	13%
CCn1cc(C(=O)N2CCN(c3ccccn3)CC2)c2cc(OC)c(OC)cc2c1=O	-14%	1.3	22%	-1.0	-7	-5%
Cc1cccc(CCN2C(Nc3ccccc3)=NC[C@@H]2CC(C)C)c1	-0.3%	x	2%	26	-2	x
COc1ccc(N2CCN(C(=O)Cn3cnc4sc(C)c(S(=O)(=O)N5CCC(C)CC5)c4c3=O)CC2)cc1	1.1%	x	x	0.5	7	x
Cc1cccc(CCNC(=O)C2CCCN(S(=O)(=O)c3cnc[nH]3)C2)c1 (configuration not stated)	0.6%	2.2	5%	-0.2	-24	0%

Other structures:
SMILES	ClpP mod	Menin MLL FP FL	gsp antag	TRPML1 ag	TRPML1 inh	gsp ag
C[C@H](CO)N1C[C@H](C)[C@@H](CN(C)S(C)(=O)=O)Oc2ccc(N(C)C)cc2C1=O	-9.7%	x	10%	0.4	11	x
Cc1ccc(Cn2c(SCCN3CCCCC3)nc3c2c(=O)n(C)c(=O)n3C)cc1	-2.8%	-0.8	-2%[15.4 µM]	0.2	10	0%
COC(=O)C1=C(C)OC(N)=C(C#N)C1c1ccc(OC)c(CSc2ccccn2)c1 (configuration not stated)	-3.3%	7.0	50µM*	4.8	29	8%
Cc1cc(-n2c(C)cc(C(=O)COC(=O)CN=C3NS(=O)(=O)c4ccccc43)c2C)no1	-2.1%	1.0	-14%	0.3	4	-9%
Cc1ccc(C)c(S(=O)(=O)N2CCCCC2CCNC(=O)C(=O)NCc2ccco2)c1 (configuration not stated)	1.3%	x	-15%	-0.2	-3	4%[15.4 µM]
COC(=O)C1C(c2ccccc2)C(C(=O)OCc2ccco2)C1c1ccccc1 (configuration not stated)	-3.0%	-1.6	u	2.1	64	-27%
O=C(SCC(O)C(O)CS)c1cccs1 (configuration not stated)	-0.8%	-0.9	-2%	-1.1	37	x
Clc1ccc(Br)c(-c2nc3ccccc3[nH]2)c1	u	x	x	0.7	14	u
COc1cccc(NC(=O)CCc2nnc3ccc(NCc4ccco4)nn23)c1	-0.3%	-1.2	1%	0.5	-6	0%
NC(=O)CSc1nc(C2CC2)nc2sc3c(c12)CCCC3	-0.5%	4.7	-2%	1.1	-24	u
O=[N+]([O-])c1ccc(/C=N/Nc2ccccn2)cc1	-1.2%	6.0	2%	x	x	-59%[inhibitor]
O=c1oc2ccccc2cc1-c1ccccc1	3.8%	-0.5	2%	2.1	-3	15%
Cn1c(=O)[nH]c(=O)c2c1nc1n(CCO)c(-c3ccccc3)cn21	-2.2%	x	x	-1.0	14	x
O=C(COC(=O)c1ccc(NS(=O)(=O)c2ccc(F)c(F)c2)cc1)NCC1CCCO1 (configuration not stated)	0.3%	0.7	-8%	-0.3	3	29%
COc1ccc(C2CC(c3ccccc3)=NN2c2ccc(/C=N/NC(=O)c3ccncc3)cc2)cc1 (configuration not stated)	-0.1%	u	-8%	-0.1	-6	4%
Cc1cccc(C)c1NCc1nnc(SCC(=O)Nc2nc(-c3ccccc3)cs2)n1-c1ccccc1	u	0.4	4%	-0.5	-26	-10%
COc1cc(CN2CCN(CCc3ccccc3)C(CCO)C2)cc(OC)c1 (configuration not stated)	32µM*	-4.6	8%	-1.0	-2	0%[15.4 µM]
CCOc1ccc(S(=O)(=O)N(CC)CC(=O)N2CCCC2)cc1	0.4%	-3.9	2%	-0.3	7	u
Cc1ccccc1N=C1NC(=O)C(CO)(CO)S1	-0.7%	-0.4	6%	0.4	-30	-33%[inhibitor]
CC(OC(=O)c1snc(C(=O)NC2CCCCC2)c1N)C(=O)NC1CCCCC1 (configuration not stated)	u	2.2	6%	0.8	0	0%
CC1CN(C(=O)CCNC(=O)c2ccccc2Cl)CC(C)O1 (configuration not stated)	-3.6%	x	0%	0.5	4	u
CC(C)(C)n1nnnc1C(c1ccc(C(F)(F)F)cc1)N(Cc1ccccc1)Cc1ccco1 (configuration not stated)	-1.2%	1.6	-10%	21	4	-3%
CCCS(=O)(=O)c1ncc(Cl)c(C(=O)Nc2scc(-c3ccccc3)c2C(=O)OCC)n1	-0.7%	x	x	-0.6	1	x
CCCNC(=O)C(NS(=O)(=O)c1ccc2c(c1)c(=O)n(C)c(=O)n2C)c1ccccc1 (configuration not stated)	-15%	4.7	8%	-0.2	7	u
Cc1ccc(NC(=O)CN2C(=O)COc3ccc(S(=O)(=O)NC4CCCC4)cc32)cc1Cl	-2.1%	x	x	1.2	5	x
CC(C)CNC(=O)COC(=O)CCC(=O)c1ccc(F)cc1	-0.5%	-0.6	-18%	-0.6	-12	20%
CN(CC(=O)Nc1ccc(Cl)cc1)C(=O)c1sccc1-c1ccccc1	0.8%	x	-21%	0.5	8	-6%
Cc1nc(N(C)C)c2sc(=S)n(Cc3ccccc3)c2n1	x	-2.7	-5%	-0.2	-4	9%[15.4 µM]
CN(C(=O)C=Cc1ccccc1)c1ccccc1	x	x	2%	0.9	-5	-31%[inhibitor]
CCc1nnc(NC(=O)Cn2nnc(-c3ccccc3F)n2)s1	-0.9%	0.6	-6%	1.1	-1	-12%

Molecules above with a CF3 group:
SMILES	ClpP mod	Menin MLL FP FL	gsp antag	TRPML1 ag	TRPML1 inh	gsp ag
Cn1nc(C(F)(F)F)c(C#N)c1N1CCN(c2ccccc2)CC1	-5.5%	5.6	-3%	-1.1	-1	2%
CC(C)(C)n1nnnc1C(c1ccc(C(F)(F)F)cc1)N(Cc1ccccc1)Cc1ccco1 (configuration not stated)	-1.2%	1.6	-10%	21	4	-3%

Next section:
SMILES	ClpP mod	Menin MLL FP FL	gsp antag	TRPML1 ag	TRPML1 inh	gsp ag
Cc1cc(C)cc(NC(=O)C/C(N)=N/O)c1	-0.5%	-3.5	3%	0.6	6	-10%
O=[N+]([O-])c1ccc(S(=O)(=O)c2ccccc2)nc1	-0.1%	x	-4%	0.9	7	2%
Cc1ccc(-n2ncc3c(NCCCc4ccccc4)ncnc32)cc1	3.6%	x	x	3.9	36	x
CCOC(=O)c1nnn(CC(=O)N2N=C(c3cccc4ccccc34)CC2c2ccccc2)c1C(=O)OCC (configuration not stated)	11µM*	0.3	-4%	0.5	27	-5%
CC(C)c1ccccc1OCC(=O)NC1CCCc2ccccc21 (configuration not stated)	-3.1%	0.4	-1%	3.7	39	7%[15.4 µM]
C[C@H]1CN([C@@H](C)CO)C(=O)CCCn2nncc2CO[C@H]1CN(C)C(=O)Nc1ccccc1	-4.3%	x	x	-0.5	-2	-19%
C/C(=C\C(=O)c1ccc(Br)cc1)NNC(=O)c1ccc(O)cc1	-2.2%	-0.3	-7%	1.2	-4	-7%
Cn1nc(C(C)(C)C)c([N+](=O)[O-])c1C(=O)N1CCCCCC1	-1.2%	-2.9	4%	0.9	-3	26%
Cc1ccc(-c2noc(-c3cc(-c4ccc(F)cc4)n[nH]3)n2)cc1	-1.4%	x	x	-0.3	8	x
CCc1cc[n+](CC(=O)Nc2ccc(Cl)cc2Cl)cc1	x	-3.2	-8%	0.3	15	-24%
CC(C)C(=O)Nc1ccccc1C(=O)OCc1cc(=O)n2nc(C3CC3)sc2n1	-0.8%	x	x	-0.9	-19	x
N#Cc1c(-c2ccccc2)ccn(Cc2cccc(Cl)c2)c1=O	u	0.6	-25%	1.2	9	u
CC(=O)C1=C(O)C(=O)N(CCC(=O)O)C1c1cccc(F)c1 (configuration not stated)	-6.5%	2.0	2%	0.1	-5	30%
CCOC(=O)N1CCN(C(=O)c2cn(CC)c3ccc(S(=O)(=O)N(C)C4CCCCC4)cc3c2=O)CC1	-9.0%	x	0%	-0.3	0	-1%
COc1ccc(NC(=O)COc2nsnc2N2CCOCC2)c(OC)c1	-2.0%	x	-7%	0.2	23	27%
O=C(NCC1COc2ccccc2O1)c1ccc(Cl)c(S(=O)(=O)N2CCCC2)c1 (configuration not stated)	0.6%	x	-13%	2.7	7	17%
COC(=O)c1c(-c2cccs2)csc1NC(=O)COc1ccc(C)cc1	-9.2%	x	x	-0.2	4	x
